High-throughput results from PubChem BioAssay.
KCNQ2 block = KCNQ2 channel blockers in CHO-K1 cells – cell-based, FluxOR thallium flux, B-score, primary screen (AID 2156); B-score at 10 µM; hit rate 1.1% among 310,000; 20 min; active compounds read low; only compounds with negative scores are shown here; some inactives read as strong as hits; O88943;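 active = fluorescence ratio B-score at most minus 3 library SDs, with starting brightness B-score within 2 library SDs, cut at about -5.5 in these data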
Target sequence (O88943 whole entry, looked up): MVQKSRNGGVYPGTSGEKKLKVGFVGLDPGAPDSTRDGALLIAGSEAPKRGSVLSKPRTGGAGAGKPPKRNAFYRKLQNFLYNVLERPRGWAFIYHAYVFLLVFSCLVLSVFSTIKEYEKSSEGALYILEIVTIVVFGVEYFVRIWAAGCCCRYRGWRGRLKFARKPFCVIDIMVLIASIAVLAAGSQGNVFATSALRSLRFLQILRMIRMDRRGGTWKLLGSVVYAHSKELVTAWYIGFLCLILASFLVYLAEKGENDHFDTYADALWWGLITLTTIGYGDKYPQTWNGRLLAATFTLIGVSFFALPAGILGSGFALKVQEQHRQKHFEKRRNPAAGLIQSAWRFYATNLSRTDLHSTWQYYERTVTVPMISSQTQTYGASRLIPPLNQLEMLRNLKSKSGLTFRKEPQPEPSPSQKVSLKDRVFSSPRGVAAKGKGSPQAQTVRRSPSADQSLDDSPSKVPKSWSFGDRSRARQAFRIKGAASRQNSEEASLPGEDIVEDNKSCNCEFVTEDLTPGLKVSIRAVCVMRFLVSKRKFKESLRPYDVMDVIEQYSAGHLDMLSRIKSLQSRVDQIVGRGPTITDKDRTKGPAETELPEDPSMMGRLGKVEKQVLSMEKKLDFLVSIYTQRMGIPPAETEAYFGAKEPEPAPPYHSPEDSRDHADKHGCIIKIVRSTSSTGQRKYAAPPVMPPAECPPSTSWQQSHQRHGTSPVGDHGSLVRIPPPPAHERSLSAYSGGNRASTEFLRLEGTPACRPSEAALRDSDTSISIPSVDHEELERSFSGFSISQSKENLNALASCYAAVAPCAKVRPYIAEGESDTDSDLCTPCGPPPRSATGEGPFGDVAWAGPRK
KCNQ2 block baseline = second read-out of KCNQ2 block, no call of its own (marks repeat the call); B-score; measured here: initial fluorescence intensity artifact check;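 brightness before thallium and not channel activity; 0 = typical well and far values either way flag optical interference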
The depositor's hits bear a star; i = inactive. Some of the compounds tested; the hit share may differ from the screen's.

Second line of a record – KCNQ2 block | KCNQ2 block baseline
- Cc1c(N=C/C=C2/N(C)c3ccccc3C2(C)C)c(=O)n(-c2ccccc2)n1C
    i | 1.12
- CC(C)(C)NS(=O)(=O)c1ccc(NC(=O)C2CC(=O)N(CCc3ccc(F)cc3)C2)cc1 (stereo not drawn)
    i | 0.85
- N#C/C(=C\c1ccccc1C(F)(F)F)C(=O)Nc1ccccc1
    i | -0.04
- Cc1cc(Cl)c(OCCn2ccnc2)c(Br)c1
    i | 2.82
- Cc1ccc(CS(=O)Cc2ccc(C(=O)NCC(C)c3ccccc3)o2)cc1 (stereo not drawn)
    i | 0.11
- CC(=O)N(c1ccccc1)c1nc(/C=C/C(=O)Nc2c(C)cc(C)cc2C)cs1
    i | -0.04
- COc1ccc(CC(=O)NCc2nc(-c3ccccc3)no2)cc1
    i | 0.79
- O=C(CN1C(=O)NC2(CCc3ccccc32)C1=O)c1c[nH]c2ccccc12 (stereo not drawn)
    i | 0.36
- COc1ccc(CCNC(=O)CC(c2ccccc2)c2cc(C)ccc2O)cc1OC (stereo not drawn)
    i | -0.16
- COc1ccc(NC(=O)CC2C(=O)N(CCc3ccccc3)C(=S)N2Cc2cccnc2)cc1 (stereo not drawn)
    i | -0.38
- CCOc1ccc(NC(=O)CN(C)C(=O)c2cccnc2SC)cc1OCC
    i | 0.17
- COc1ccc(C2c3ccc(O)cc3Oc3ncn4nc(-c5ccccn5)nc4c32)cc1OC (stereo not drawn)
    i | 0.14
- O=C(COc1ccc(Cl)cc1[N+](=O)[O-])N/N=C/c1cccs1
    i | -0.8
- Cc1sc2c(c1C)c(=O)n(-c1cccc(C(F)(F)F)c1)c(=O)n2CC(=O)NCc1ccco1
    i | 2.33
- CCOC(=O)c1[nH]ncc1[C@@H]1C[C@H]2CN(Cc3cccc(Cl)c3)C(=O)[C@]23CCCN13
    i | 0.01
- CCOC(=O)C1CCCN(c2c(NCCc3ccc(C)cc3)c(=O)c2=O)C1 (stereo not drawn)
    i | 0.1
- Cc1ccc(C(=O)OCC(=O)N(C)C2CCS(=O)(=O)C2)cc1[N+](=O)[O-] (stereo not drawn)
    i | 0.63
- COc1ccc(Cn2c(=O)cc(N)n(-c3ccccc3C)c2=O)cc1
    i | 0.86
- Cc1c(N=Cc2ccc(-c3ccc(Cl)cc3)o2)c(=O)n(-c2ccccc2)n1C
    i | 1.25
- CCCOc1ccc(Cl)cc1CN1CCOCC1
    i | -0.78
- COc1cc(NC(=O)c2cc([N+](=O)[O-])ccc2NC(=O)CN2CCN(c3ccccn3)CC2)cc(OC)c1
    i | -1.38
- O=C(NCc1ccccc1F)C1CCCN(C(=O)Nc2ccc(F)cc2)C1 (stereo not drawn)
    i | 0.13
- O=C1OCCC1Sc1nc2ccccc2c(=O)n1-c1ccc(F)cc1 (stereo not drawn)
    i | -0.18
- CCCCCC(=O)Nc1ccccc1N1CCOCC1
    i | 0.75
- NS(=O)(=O)c1ccc(NC(=S)NC2CC2)cc1
    i | 0.04
- c1csc(-c2nnc3ccccn23)c1
    i | -0.1
- CN(C)S(=O)(=O)c1cc(NC(=O)COC(=O)CCSc2ccc(Cl)cc2)ccc1Cl
    i | -0.11
- Cc1cccc(-n2nnc(C(=O)NC3CCCc4ccccc43)c2N)c1 (stereo not drawn)
    i | -0.21
- Cc1ccc(NC(=O)CCn2c(=O)[nH]c3ccsc3c2=O)cc1C
    i | -2.23
- CC(C)c1ccc(OCC(=O)NCc2ccco2)cc1
    i | 0.26
- O=C(NCCc1ccccc1)C1CCN(C(=O)c2ccc([N+](=O)[O-])cc2)CC1
    i | 0.29
- O=Cc1ccccc1OS(=O)(=O)c1ccccc1
    i | -1.35
- CCN(CC(=O)NCc1ccc(Cl)cc1)C(=O)C(C)Sc1ccccc1 (stereo not drawn)
    i | 1.35
- O=C(CSc1nnc(-c2ccc(C(F)(F)F)cn2)s1)c1ccccc1
    i | 1.92
- Cc1ccc(CN(Cc2cccnc2)C(=S)Nc2cccc(Cl)c2C)cc1
    i | -0.01
- COc1ccc([N+](=O)[O-])cc1-c1nc2ccccc2nc1-c1ccccc1
    i | 1.38
- Clc1ccc(-n2nnnc2CN2CCCCC2)cc1Cl
    i | -1.35
- COc1cccc(-c2cc(C(F)(F)F)nc(-n3cccn3)n2)c1
    i | 0.33
- Clc1ccccc1Cn1nnc2c(N3CCCC3)ncnc21
    i | 0.41
- Cc1ccc(NC(=O)c2ccc3c(c2)NC(=O)CS3)nc1
    i | -3.13
- CC(C)CN(C(=O)COC(=O)COc1ccc2c(c1)CCC2)c1c(N)n(Cc2ccccc2)c(=O)[nH]c1=O
    i | -1.19
- CN1CCN(c2ccc(NC(=O)CSc3ccccc3)cc2F)CC1
    i | -0.72
- CCn1cc(Cl)c(C(=O)NNC(=O)CCn2ccc([N+](=O)[O-])n2)n1
    i | 1.12
- COC(=O)c1sc2nc(C)nc(SCC(=O)C(C)(C)C)c2c1C
    i | 0.59
- COc1ccc2cc3cc(C(=O)N4CC(C)CC(C)C4)oc3nc2c1 (stereo not drawn)
    i | -1.88
- CCOC(=O)Cn1c(=O)n(Cc2ccccc2)c(=O)c2cccnc21
    i | -0.59
- COc1cc(/C=C/C(=O)OCC(=O)NCc2ccco2)ccc1O
    i | -0.11
- CC(=O)Oc1ccc2c(=O)c(N3C(=O)c4ccccc4C3=O)c(C)oc2c1C
    i | -0.76
- CCCn1c(Nc2cccc(OC)c2)nc2ccccc21
    i | -0.07
- Nc1cc2c(cc1C(=O)c1ccccc1)OCCO2
    i | 0.74
- COc1ccc(-c2cc(C(=O)NCCCN3CCCC3=O)c3ccccc3n2)cc1
    i | 1.95
- COCCCN(C(=S)Nc1c(C)cc(C)cc1C)C(C)c1ccncc1 (stereo not drawn)
    i | 0.44
- O=C(NNC(=O)c1ccc([N+](=O)[O-])cc1)NC1CCCCC1
    i | -1.01
- N#CCc1nnc2n1-c1ccccc1CCC2
    i | -0.85
- O=C(Nc1ccc(C(=O)O)cc1)/C(=C\C=C\c1ccccc1)NC(=O)c1ccccc1Cl
    i | -0.83
- CN(Cc1cnn(C)c1)S(=O)(=O)c1cccc([N+](=O)[O-])c1
    i | 0.02
- CC(=O)c1cccc(NC(=O)C2CCN(C(=O)c3ccccc3Cl)CC2)c1
    i | -0.13
- c1ccc(Nc2nnc(-c3cccnc3)s2)cc1
    i | 0.27
- CN1CCN(C(=O)c2cnn(-c3ccccc3)c2NC(=O)c2ccccc2Br)CC1
    i | -1.65
- CC(C)[C@H](NC(=O)c1ccco1)C(=O)OCC(=O)Nc1ccc(Cl)c(S(=O)(=O)N(C)C)c1
    i | 1.76

Arranged by formula weight (rising): three of the compounds above.
Second line of a record – KCNQ2 block | KCNQ2 block baseline
- c1ccc(Nc2nnc(-c3cccnc3)s2)cc1
    i | 0.27
- CN(Cc1cnn(C)c1)S(=O)(=O)c1cccc([N+](=O)[O-])c1
    i | 0.02
- CC(=O)c1cccc(NC(=O)C2CCN(C(=O)c3ccccc3Cl)CC2)c1
    i | -0.13

(next part)
Second line of a record – KCNQ2 block | KCNQ2 block baseline
- COc1cc(SC)ccc1C(=O)Nc1ccc2ncccc2c1
    i | 1.2
- Nc1c(C(=O)c2ccccc2)sc2c1c(=O)[nH]c(=O)n2-c1ccccc1
    i | -0.31
- CC1CN(CC(=O)c2c(N)n(Cc3ccccc3)c(=O)n(C)c2=O)CC(C)O1 (stereo not drawn)
    i | -2.24
- Cn1cccc1CC(=O)N/N=C/c1ccc(Cl)c([N+](=O)[O-])c1
    i | -1.96
- Cc1ccc(-c2csc(NC(=O)CN3CCC(C(N)=O)CC3)n2)cc1
    i | 0.76
- Cc1cccc(C)c1NC(=O)C(NC(=O)c1ccccn1)c1ccccc1[N+](=O)[O-] (stereo not drawn)
    i | -1.01
- O=C(c1ccc2c(c1)OCO2)N1CCN(c2ncccn2)CC1
    i | 0.91
- CN(C)c1ccnc2sc3c(=O)n(Cc4ccccc4)cnc3c12
    i | 0.34
- COC(=O)c1ccc(OC(=O)N2CCOCC2)cc1
    i | -2.35
- Cc1ccc(/C=c2/sc3nnc(-c4ccccc4Cl)n3c2=O)o1
    i | 0.03
- CCOC(=O)c1cc2c(=O)n3ccccc3nc2n(Cc2ccco2)c1=NC(=O)c1cccnc1
    -7.1* | 2.58*
- Cc1nc(NC(=O)c2ccc(F)cc2)sc1C(=O)Nc1ccc2c(c1)CCC2
    i | 1.14
- N#C/C(=C\c1ccncc1)c1ccccn1
    i | -0.04
- Cc1ccc(C(C(=O)NCc2ccccc2)N(Cc2cccs2)C(=O)c2ccc3c(c2)OCCO3)cc1 (stereo not drawn)
    i | -0.44
- Cc1ccccc1-n1c(SCC(=O)N/N=C/c2sccc2C)nc2ccccc2c1=O
    i | -0.78

(more compounds)
mol	KCNQ2 block	KCNQ2 block baseline
O=C(O)C(Sc1ccncn1)c1ccccc1 (stereo not drawn)	i	-0.94
CCCNC(=O)Cn1nc(C(F)(F)F)cc1C	i	0.45
COc1cccc(OC)c1C(=O)N1CCN(S(=O)(=O)c2ccccc2)CC1	i	1.54
Cc1cc(N2CC34C=CC(O3)C(C(=O)O)C4C2=O)no1 (stereo not drawn)	i	0.87
Cc1ccc(NC(=O)c2cc(-c3ccccc3)nn2-c2ccccc2)cc1	-5.73*	-0.31*
Cc1ccc(/C=C/c2nnc(-c3cccs3)o2)cc1	i	0.12
CSc1ccccc1C(=O)N(CC1CCCO1)c1c(N)n(Cc2ccccc2)c(=O)[nH]c1=O (stereo not drawn)	i	2.08
COc1ccc(/C=N\NC(=O)c2cc(OCC(F)(F)F)ccc2OCC(F)(F)F)cc1	i	-0.6
COc1ccc2cc(C(=O)Nc3ccc(O)cc3)sc(=O)c2c1OC	i	4.5
COc1cc(C(=O)OC2CSCC2NC(=O)c2ccccc2)cc(OC)c1OC (stereo not drawn)	i	0.45
O=C(CCCCCn1c(SCc2ccncc2)nc2ccccc2c1=O)NCc1ccco1	i	0.23
CCC(CC)=NNc1cccc([N+](=O)[O-])c1	i	-0.96
CCC(C)(C)C(=O)Nc1cc([N+](=O)[O-])ccc1Cl	i	-0.03
COc1ccc(C(C)(C)C)cc1NC(=O)c1c(C)noc1C	i	-2.3
O=C(NCc1ccncc1)c1ccc(NS(=O)(=O)c2ccccc2)cc1	i	0.01
C=CCn1c(Sc2ncc([N+](=O)[O-])s2)n[nH]c1=O	-9.8*	-0.89*
C=CCN(CC=C)CCOc1ccc(C)cc1[N+](=O)[O-]	i	-2.06
CC1=C(C(=O)OC(C)C)C(c2ccc(Cl)cc2)n2c(s/c(=C\c3ccc(OCC(=O)O)cc3)c2=O)=N1 (stereo not drawn)	i	-0.19
CC(C)CC(=O)NC(Nc1ccccc1F)C(Cl)(Cl)Cl (stereo not drawn)	i	1.14
Cc1nn(-c2nc3ccccc3s2)c(C)c1Oc1ccccc1O	i	1.66
CCOC(=O)c1ccc(NC(=O)COc2ccccc2CNC2CCCC2)cc1	i	0.61
CC1(C)CC[C@]2(C(=O)O)CC[C@]3(C)C(=CCC4[C@@]5(C)CC[C@H](O)C(C)(C)C5CC[C@]43C)C2C1 (stereo partly drawn)	i	-0.77
COC(=O)C(C(C)C)N1CCc2c(C)nc3c(C#N)cnn3c21 (stereo not drawn)	i	-1.55
Cc1cc(C(=O)NC2CCCCC2)c(C)o1	i	0.93

The last 6 entries of the part above open the next one:
mol	KCNQ2 block	KCNQ2 block baseline
CC(C)CC(=O)NC(Nc1ccccc1F)C(Cl)(Cl)Cl (stereo not drawn)	i	1.14
Cc1nn(-c2nc3ccccc3s2)c(C)c1Oc1ccccc1O	i	1.66
CCOC(=O)c1ccc(NC(=O)COc2ccccc2CNC2CCCC2)cc1	i	0.61
CC1(C)CC[C@]2(C(=O)O)CC[C@]3(C)C(=CCC4[C@@]5(C)CC[C@H](O)C(C)(C)C5CC[C@]43C)C2C1 (stereo partly drawn)	i	-0.77
COC(=O)C(C(C)C)N1CCc2c(C)nc3c(C#N)cnn3c21 (stereo not drawn)	i	-1.55
Cc1cc(C(=O)NC2CCCCC2)c(C)o1	i	0.93
CCOC(=O)N1CCN(S(=O)(=O)c2ccc(C(=O)N(CCCN(C)C)c3nc4c(F)cc(F)cc4s3)cc2)CC1	i	0.64
O=C(CSc1ccc2nnc(CCNC(=O)c3ccccc3)n2n1)Nc1ccc(F)cc1F	i	0.39
CCNc1nc(NCC)n2c(SCC(=O)Nc3c(C)cccc3C)nnc2n1	i	1.74
CSc1nc2nc3c(cc2c(=O)n1-c1ccccc1C)CCCC3	i	0.65
COc1ccc(CNC(=O)CSc2cccc3cccnc23)cc1	i	0.62
O=C(OCc1csc(-c2ccccc2)n1)c1ccccc1O	i	1.43
Fc1ccccc1COc1ccc2ccccc2c1CNc1nn[nH]n1	i	0.21
O=C1/C(=C/c2cccc([N+](=O)[O-])c2)CSc2ccc(Cl)cc21	i	-0.18
COc1ccc(C(=O)c2ccc(Br)cc2)c2ccccc12	i	-0.12
Cc1ccccc1OCC(=O)OCC(=O)Nc1cc(S(=O)(=O)N2CCCCC2)ccc1Cl	i	0.03
COc1ccc(N=Nc2c(-c3ccc(OC)cc3)[nH]oc2=O)cc1	i	0.64
CCn1c(NC(=O)c2cccc(Cn3cc(Cl)cn3)c2)nc2ccccc21	i	1.34
Cn1c(C(=O)N2CCCC(C(=O)NCCCSC3CCCCC3)C2)cc2sccc21 (stereo not drawn)	i	-0.31
COc1ccccc1CNCC(O)(c1ccc(Cl)cc1)c1ccc(Cl)cc1	i	1.32
CSc1ccccc1C(=O)C1CCCN(Cc2cnn(-c3ccccc3)c2)C1 (stereo not drawn)	i	0.02
O=C(c1ccc(-c2ccccc2Cl)s1)N1CCOCC1	i	0.02
COc1ccc(N(C(=O)c2ccco2)C(C(=O)NC2CCCC2)c2ccc(C)cc2)c(OC)c1 (stereo not drawn)	i	-2.04
CCC1=NN2C(=N)/C(=C\c3cccn3-c3ccc(Cl)cc3)C(=O)N=C2S1	i	-0.38
O=C(N(c1ccccc1)c1ccccc1)N(c1ccccc1)c1ccccc1	i	-1.94
